Source: PubChem BioAssay (National Center for Advancing Translational Sciences (NCATS))
TRPML1 ag – human mucolipin-1 channel agonism; Q9GZU1; TRPML1-expressing cells, Ca2+ dye fluorescence, FDSS; host cell line not named in the record; reference of the full effect not given here; activation, % (no concentration beside the values); hit rate 0.12% among 410,000; in the data active = activation above about 50%; inconclusive = about 30% to 50%; inactive = below about 30%; also: 0% is about no effect; the text of the record puts the active cut at 80%
Target sequence (Q9GZU1 whole entry, looked up): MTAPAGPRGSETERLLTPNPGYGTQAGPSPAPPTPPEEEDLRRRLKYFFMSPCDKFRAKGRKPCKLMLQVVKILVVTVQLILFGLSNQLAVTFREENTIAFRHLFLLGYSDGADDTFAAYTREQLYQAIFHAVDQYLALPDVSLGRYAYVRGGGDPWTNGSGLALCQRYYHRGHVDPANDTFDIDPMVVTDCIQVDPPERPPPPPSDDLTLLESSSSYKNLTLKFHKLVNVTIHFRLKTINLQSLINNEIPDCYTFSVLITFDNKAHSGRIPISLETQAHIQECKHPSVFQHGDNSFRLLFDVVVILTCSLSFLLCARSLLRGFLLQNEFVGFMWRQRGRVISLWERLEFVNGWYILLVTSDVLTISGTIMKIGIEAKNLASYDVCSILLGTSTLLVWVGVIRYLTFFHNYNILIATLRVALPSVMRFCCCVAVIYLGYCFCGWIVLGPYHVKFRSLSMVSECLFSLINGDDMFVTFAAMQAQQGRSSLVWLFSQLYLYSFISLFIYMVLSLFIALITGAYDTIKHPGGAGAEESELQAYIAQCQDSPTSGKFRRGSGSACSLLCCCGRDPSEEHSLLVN
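Agonist activity was taken from a 110 s kinetic Ca2+ dye read on the FDSS after pinning compounds onto TRPML1-DL cells. The cells were seeded at 1,500/well with Tet inducer, incubated about 16 h, then dye-loaded at room temperature.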
PINK1 modulator – PINK1 expression modulation; Potency, µM (titrated, usually from 76.6 µM), inactives show top-dose activation (PINK1 increase), hits mostly activators; hit rate 0.2% among 410,000; PINK1 immunofluorescence, high-content cytometry, 24 h; AID 624263; active = well fitted activation curve with a large enough effect; inconclusive = small, poorly fitted or top-dose-only effect; inactive = flat fitted curve, though single readings scatter; cell line not stated here;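 also: potency is read from the fitted curve at half-maximal effect; % of control where 0% means no effect; nearly all actives have a fitted effect of over 65% in size; a mitochondrial uncoupler was the plate control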
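Decision-based qHTS: stable cells, 24 h exposure to five compound concentrations, CCCP as control. Fixed cells stained for PINK1 plus nuclear, mitochondrial and cell markers, cytometer read.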
TRPML1 inh – blocks the human TRPML1 channel; Q9GZU1; AID 624415; hit rate 0.02% among 390,000; activity change, negative = inhibition, % (no concentration beside the values); TRPML1-inducible cells, Ca2+ dye fluorescence, FDSS; hits give low values; inhibition of EC80 agonist-evoked calcium signal; in the data active means activity change below about -50%; inconclusive means about -30% to -50%; inactive means above about -30%;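 also: stimulus is agonist 54-4 at its EC80 concentration; % is scaled to controls: 0 for no effect and ±100 for the full control effect; compound concentration not given in the record; the text of the record puts the active cut at -80%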
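Tet-induced TRPML1-DL cells loaded with Ca8 no-wash calcium dye were read kinetically on FDSS. Compound addition was followed by EC80 agonist 54-4 (4 uM final); inhibition was read over 110 s.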
D2 agonist – agonists of human D2 dopamine receptor (beta-arrestin); P14416; DiscoveRx PathHunter D2 beta-arrestin, luminescence, 90 min; 100% = 57 uM dopamine signal; activation, % (concentration not given with the values); hit rate 0.084% among 360,000; in the data active = activation above about 40%; inconclusive = about 15% to 40%; inactive = below about 15%; also: compound concentration not given in the record; the text of the record calls up to 30% inactive
Target sequence (P14416 whole entry, looked up): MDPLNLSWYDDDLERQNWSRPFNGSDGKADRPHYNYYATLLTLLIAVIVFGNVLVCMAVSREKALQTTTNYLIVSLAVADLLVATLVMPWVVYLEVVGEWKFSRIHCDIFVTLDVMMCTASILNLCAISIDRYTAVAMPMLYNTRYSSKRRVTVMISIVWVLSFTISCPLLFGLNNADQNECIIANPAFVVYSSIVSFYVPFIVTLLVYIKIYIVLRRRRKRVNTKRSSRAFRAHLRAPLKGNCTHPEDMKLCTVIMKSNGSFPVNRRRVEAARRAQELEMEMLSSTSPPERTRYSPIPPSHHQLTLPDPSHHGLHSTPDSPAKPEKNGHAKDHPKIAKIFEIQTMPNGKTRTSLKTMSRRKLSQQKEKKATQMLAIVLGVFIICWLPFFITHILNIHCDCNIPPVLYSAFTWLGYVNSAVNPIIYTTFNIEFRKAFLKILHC
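Agonist mode: compounds alone added to overnight-plated D2 PathHunter cells for 90 min at 37 C, with 57 uM final dopamine (EC100) defining full response. Beta-arrestin recruitment detected by chemiluminescent reagent, read after 1 h at ambient temperature.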
Six1-Eya2 blk – blocks human Six1 binding to Eya2 | AlphaScreen GST-Six1/His-Eya2 binding, biochemical; hits give low values; control for the full effect not named in the record | activity change, % (no concentration beside the values) | hit rate 0.56% among 360,000 | AID 651725; in the data active = activity change below about -65%; inconclusive = about -30% to -65%; inactive = above about -30%; also: % is scaled to controls: 0 for no effect and ±100 for the full control effect; compound concentration not given in the record
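AlphaScreen with GST-Six1 and His-Eya2 (5X mix: 250 nM and 500 nM), glutathione donor and nickel acceptor beads; buffer 50 mM Tris pH 8.0, 300 mM NaCl, 1 mM TCEP; 1 h at 37 C in the dark.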
D2 PAM – positive allosteric modulators of human D2 dopamine receptor; P14416; DiscoveRx D2 beta-arrestin cells, luminescence, 90 min; 100% = 57 uM dopamine signal; potentiation, % (test concentration not listed); hit rate 0.23% among 360,000; AID 624464; active = potentiation of 50% or more; inconclusive = 30% to 50%; inactive = 30% or less;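 also: compound concentration not given in the record; tested on top of an EC20 dose of dopamine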
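D2 cells co-treated with compound plus 50 nM dopamine (EC20) for 90 min at 37 deg C to detect potentiation. Beta-arrestin recruitment was read as enzyme-fragment luminescence after 1 h at ambient temperature. Full response was set by 57 uM dopamine.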
Starred values were filed as active, the others as inactive; ? = inconclusive; . = no result given; & = joins results of further samples; [ ] = dose if it differs, or a comment.

The line under a structure holds: D2 agonist, Six1-Eya2 blk, PINK1 modulator, D2 PAM, TRPML1 inh, TRPML1 ag
> O=[N+]([O-])c1cccc(-c2nc3ccccc3s/c2=N/O)c1
  -1.0, -26, 8.6%, -4, -14, 3.0
> Cc1cccc(NC(=O)C2CCCN(S(=O)(=O)c3c(C)nn(C)c3C)C2)n1 (configuration not stated)
  -3.5, 0, 6.6%, -1, -3, -0.8
> CC(C)CC(N)c1csc(Nc2ccc(S(C)(=O)=O)cc2)n1 (configuration not stated)
  -3.5, 10, 0.7%, -6, ., 0.1
> CCn1nnc2cc(C(=O)Nc3cccc(C(F)(F)F)c3)ccc21
  ., ., 0.1%, ., 0, 1.2
> COCCn1c(=S)[nH]c2cc(C(=O)N3CCCC(C)C3)ccc2c1=O (configuration not stated)
  5.3, -5, -1.0%, -27, 18, -0.1
> OCCC1CN(Cc2cn[nH]c2C2CCCCC2)CCN1C1CCCCC1 (configuration not stated)
  -1.8, 5, -1.6%, -18, 26, 0.6
> Cc1nn(Cc2ccccc2Cl)c(C)c1C(=O)N1CCN(c2ccccc2)CC1
  1.1, -2, 0.6%, 4, -2, 2.7
> O=C1C2CC=CCC2C(=O)N1Cc1ccccc1Cl (configuration not stated)
  -1.8, 4, 1.1%, -10, 18, 0.2
> CCOc1ccc2nc(C(=O)N3CCCC(C)C3)sc2c1 (configuration not stated)
  0.0, 1, 4.5%, -12, 10, 0.4
> O=C(c1cnccn1)N1CCN(c2ccccc2)CC1
  2.6, 1, -1.0%, 3, -8, -0.3
> O=C(CSc1ncccn1)N1CCCc2ccccc21
  0.5, 3, 0.8%, -3, 15, -0.7
> COC(=O)c1scc(-c2ccc(C)cc2)c1S(=O)(=O)Nc1c(C)cc(C)cc1C
  ., ., 5.4%, ., 1, 0.2
> CC(Sc1nc2ccccc2c(=O)n1CCCN1CCOCC1)C(=O)N1CCc2ccccc21 (configuration not stated)
  -5.0, 4, 1.4%, -4, 11, 0.8
> CCCc1cc(=O)oc2cc(C)cc(OC(C)C(=O)NCC(O)c3ccccc3)c12 (configuration not stated)
  ?, 0, 1.9%, 5, 3, -0.2
> COC(=O)c1cc(=O)nc(NN=C2CCCCC2)s1
  -3.5, -6, 0.1%, -4, ., -0.4
> CCc1nc2sc3c(N4CCCCC4)ncnc3c2c2c1CCCC2
  ., ., 2.6%, ., 13, -0.2
> CCOC(=O)c1ccc2c(c1)N(CC(=O)Nc1ccc(CC)cc1)C(=O)c1ccccc1S2
  ., ., 8.1%, ., 1, 4.1
> Cc1cccc(NC(=O)C2(c3ccccc3)CC2(Cl)Cl)c1 (configuration not stated)
  -2.9, 6, -0.5%, -9, -1, -0.8
> COc1ccccc1NC(=O)Nc1ccc2[nH]c(=O)[nH]c2c1
  0.5, -16, 2.0%, -3, 3, 0.5
> COc1ccc(C(=O)Nc2nc3ccc(S(C)(=O)=O)cc3s2)cc1OC
  -1.1, -2, 5.2%, -5, -8, -1.0
> Cc1cc(C(F)(F)F)nn1CC(=O)N1CCCC1
  -0.6, -28, 14%, -7, 3, 0.1
> Cc1cccc(CC(=O)Nc2ccc(C(=O)N3CCOCC3)cc2)c1
  -2.3, 2, 0.1%, 22, -6, 0.2
> CC(C)(C)[C@@H]1C=C(C(=O)N2CCN(Cc3ccccc3)CC2)O[C@H](OCCCCO)C1
  1.2, 3, 1.5%, -4, -16, -0.1
> COc1ccc(NC(=O)c2ccc3c(=O)n(Cc4ccco4)c(=S)[nH]c3c2)c(OC)c1
  -3.5, -11, -0.4%, 12, -3, -0.5
> NC(=O)c1ccc2nc(NC(=O)c3ccc(N)cc3)sc2c1
  7.0, 15, -1.0%, 8, -14, -0.6
> COc1cc(OC)c(C(=O)OCC(=O)N2CC(=O)Nc3ccccc32)cc1OC
  -4.6, 5, 3.2%, 0, 0, -0.1
> COc1ccc(C(=O)NNC(=O)Nc2ccc(C)cc2)cc1
  -3.1, 5, -1.2%, -15, 31, 0.7
> Clc1ccc(OCCCN2CCc3ccccc3C2)c(Br)c1
  -3.3, -2, 21%, -68, 1, -0.2
> CC1CCCN(C(=O)C(Cc2ccccc2)n2cccc2)C1 (configuration not stated)
  -0.4, -5, 0.6%, -4, -7, -0.2
> O=C(CSc1ccccc1Cl)NC1CCCc2ccccc21 (configuration not stated)
  -2.5, 8, -0.9%, -9, -6, -0.3

Ordered by molecular weight (low to high): some entries from above.
The line under a structure holds: D2 agonist, Six1-Eya2 blk, PINK1 modulator, D2 PAM, TRPML1 inh, TRPML1 ag
> COc1ccc(C(=O)NNC(=O)Nc2ccc(C)cc2)cc1
  -3.1, 5, -1.2%, -15, 31, 0.7
> CCc1nc2sc3c(N4CCCCC4)ncnc3c2c2c1CCCC2
  ., ., 2.6%, ., 13, -0.2
> COc1cc(OC)c(C(=O)OCC(=O)N2CC(=O)Nc3ccccc32)cc1OC
  -4.6, 5, 3.2%, 0, 0, -0.1

(list continues)
The line under a structure holds: D2 agonist, Six1-Eya2 blk, PINK1 modulator, D2 PAM, TRPML1 inh, TRPML1 ag
> O=C(c1cnn2c(C(F)F)cc(-c3ccccc3)nc12)N1CCc2ccccc21
  1.3, -2, 6.9%, -6, -3, -0.1
> Nc1ncnc2c1ncn2[C@@H]1O[C@H](CNCc2ccc(OCC(=O)Nc3ccccn3)cc2)[C@@H](O)[C@H]1O
  -1.7, 0, -1.3%, -3, -2, -0.7
> COc1ccc2nc(NC(=O)CSc3nc4ccccc4o3)sc2c1
  0.2, -2, 5.4%, -10, -6, -0.4
> Cc1cccc(NC(=O)CSCC(=O)N2CCN(c3cccc(C(F)(F)F)c3)CC2)c1
  -2.6, -2, -0.9%, -6, 20, 0.9
> CCOC(=O)c1c(S(=O)(=O)NCC2CCN(Cc3cccc(F)c3)CC2)c(C)n(C)c1C
  -4.6, -10, 1.1%, -31, -1, -0.7
> CCOC(=O)NN1C(=O)c2ccccc2NC1c1ccc(OC)cc1 (configuration not stated)
  -0.2, 13, -1.8%, -9, -20, 1.2
> Cc1cc(C)n(/N=C/c2cccc([N+](=O)[O-])c2)c(=O)c1
  -2.1, 25, -1.9%, 11, -8, -0.7
> CCc1cccc(C)c1NC(=O)C1CCN(S(=O)(=O)c2c(C)noc2/C=C/c2c(C)cc(C)cc2C)CC1
  ., ., 0.4%, ., 18, -0.7
> CC1CCN(C(=O)c2ccc3c(c2)OCO3)CC1
  -1.6, -4, -1.1%, -9, -6, -0.7
> O=C(CSc1nnc(C2COc3ccccc3O2)o1)NC1CCCCC1 (configuration not stated)
  0.4, -1, 0.5%, 1, -15, 0.1
> COc1cc(/C=N/OCC(=O)NC23CC4CC(CC(C4)C2)C3)ccc1OCc1ccccc1
  -0.6, 3, -1.1%, -12, 15, 0.5
> O=c1c2c3c(sc2n2cnnc2n1CCc1ccccc1)CCCC3
  -0.9, 5, 15%[38.3 µM], -5, 16, 1.0
> CCN(Cc1ccncc1)C(=O)c1ccc(Br)o1
  2.1, 1, 1.7%, -2, -2, -0.3
> COc1ccc2oc(-c3ccc(NC(=O)c4ccc(N5CCOCC5)c([N+](=O)[O-])c4)cc3)nc2c1
  -1.4, -3, -0.2%, 6, 8, 0.0
> CCOc1ccc(NC(=O)CSc2nc3ccccc3nc2N2CCOCC2)cc1
  -2.8, 2, 2.6%&1.6%, -5, -2&1, 1.2&-0.2
> CC(=O)Nc1ccc(S(=O)(=O)NCC(=O)OCC(=O)NC(=O)C2CCCCC2)cc1
  -1.4, 5, -0.2%, -2, -13, 0.7
> CN1CCN(c2ccc(NC(=O)N3CCc4ccccc43)cc2)CC1
  -2.8, -17, -0.8%, -34, ?, -0.2
> CCOc1ccc(S(=O)(=O)N2c3ccccc3CC2C)cc1 (configuration not stated)
  -3.9, 13, ?, -4, 19, 0.6
> Cc1cccc(CN2CCN(CC(=O)Nc3c(C)cccc3C)S2(=O)=O)c1
  ., ., 0.7%, ., 2, 0.5
> O=C(COc1nsnc1N1CCOCC1)Nc1cccc(Cl)c1
  0.6, -12, -0.7%, 12, 7, 2.8
> CCCC(=O)Nc1cccc(NC(=O)CN2CCN(c3ccccc3OC)CC2)c1
  -3.5, 2, -0.1%, -41, -3, 0.6
> COc1ccc(-c2nnc(OC)c3ccccc23)cc1
  2.5, -8, -1.5%, -5, 13, 0.6
> CN(C(=O)c1ccc(S(=O)(=O)N2CCCCC2)cc1)C1CCS(=O)(=O)C1 (configuration not stated)
  -4.5, 5, 0.1%, -4, -5, 0.4
> COc1ccc(CN2CC[C@@H](N3CCOCC3)[C@H](O)C2)cc1F
  3.7, 1, 0.6%, -10, -11, 0.3
> C/C=C(/C)C(=O)O[C@@H]([C@H](O)c1cc2ccc(=O)oc2cc1OC)C(C)(C)O[C@@H]1O[C@H](CO)[C@@H](O)[C@H](O)[C@H]1O
  -0.9, 4, -0.6%, -9, -6, 0.4
> O=c1c(-c2ccc(Cl)cc2)cnc2n1CCS2
  -2.9, 3, 0.1%, -1, -4, -1.4
> O=S(=O)(c1ccccc1OC(F)(F)F)N1CCN(c2ccnc3cc(Cl)ccc23)CC1
  -2.4, -6, 0.7%, 2, 65, 0.6
> CC(CNC(=O)CCCn1c(=O)c2cccn2c2cccnc21)c1ccccc1 (configuration not stated)
  -1.0, -6, 2.6%&1.0%, -8, -25&10, -0.7&-0.3
> Cc1ccc(NC(=O)C2CCN(C(=O)c3cccs3)CC2)cc1
  -5.1, 7, -0.2%, -10, 17, 0.4
> COc1ccc(Br)cc1CN(C)CC(=O)Nc1cc([N+](=O)[O-])ccc1OC
  -1.3, 3, -0.1%, -18, 3, 0.9
> CC(C)c1ccc(/C=C/C2=NNC(=O)CC2)cc1
  9.3, -6, 2.1%, -9, 0, 4.5
> Fc1cccc(/C=N/Nc2ccc3ccccc3n2)c1
  -1.7, -1, 12%, -12, 7, 0.6
> O=C(COc1cccnc1[N+](=O)[O-])N1CCC(Cc2ccccc2)CC1
  2.7, -13, 0.2%, -5, 1, -0.2
> C=CCc1ccc(OCCOCCN(C)C)c(OC)c1
  -0.1, -6, 0.7%, -26, 5, -0.1
> O=C(Nc1c2c(nn1-c1ccc([N+](=O)[O-])cc1)CS(=O)(=O)C2)c1ccco1
  -5.8, 0, -0.9%, -13, 11, -1.3
> CC(Sc1ccc2nnc(-c3ccc(F)cc3)n2n1)C(=O)O (configuration not stated)
  -4.7, 5, 1.0%, -9, 2, -0.2
> Cc1cc(C)n2nc(CNS(=O)(=O)c3cccc(Cl)c3)nc2n1
  ., ., 2.8%, ., 40, 0.8
> Nc1cc2c(cc1Cl)-c1ccc(Cl)cc1C2=O
  -1.9, -14, -0.7%, -7, 6, 0.5
> Cc1ccc(C(=O)NCC(=O)N(C)CC(=O)Nc2c(Cl)cccc2Cl)s1
  3.3, 3, -5.7%, 6, -18, 0.1
> CC(C)c1nnc(NC(=O)CCC(=O)NCC2CCCO2)s1 (configuration not stated)
  -5.7, -2, -1.2%, -24, -2, -0.1
> CCc1ccc(N(CC)C(=O)Cc2c(C(=O)O)n(C)c3ccccc23)cc1
  -3.8, 2, 0.3%, -5, 2, -0.1
> CCS(=O)(=O)N1CCc2cc(C(=O)NCc3ccc(OC)cc3)ccc21
  ., ., -0.5%, ., -7, -1.0

Outcome played no part in choosing rows; 1% or so of the library scored in one or more.
